HNF4A DNA FP: change in binding of human HNF4 alpha to DNA | HNF4a-FITC DNA binding, fluorescence polarization, 1 h | P41235 | activity change, % at 10 µM | 360,000 compounds, 0.3% hits; in the data active = activity change above about 30%, passing the limit was not always enough;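 also: controls were the assay level and a saturating level of protein; the project sought stronger binding though the title names inhibitors; some compounds called inactive have numbers as strong as hits; positive values seem to mean higher polarization but the record does not say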
Target sequence (P41235 whole entry, looked up): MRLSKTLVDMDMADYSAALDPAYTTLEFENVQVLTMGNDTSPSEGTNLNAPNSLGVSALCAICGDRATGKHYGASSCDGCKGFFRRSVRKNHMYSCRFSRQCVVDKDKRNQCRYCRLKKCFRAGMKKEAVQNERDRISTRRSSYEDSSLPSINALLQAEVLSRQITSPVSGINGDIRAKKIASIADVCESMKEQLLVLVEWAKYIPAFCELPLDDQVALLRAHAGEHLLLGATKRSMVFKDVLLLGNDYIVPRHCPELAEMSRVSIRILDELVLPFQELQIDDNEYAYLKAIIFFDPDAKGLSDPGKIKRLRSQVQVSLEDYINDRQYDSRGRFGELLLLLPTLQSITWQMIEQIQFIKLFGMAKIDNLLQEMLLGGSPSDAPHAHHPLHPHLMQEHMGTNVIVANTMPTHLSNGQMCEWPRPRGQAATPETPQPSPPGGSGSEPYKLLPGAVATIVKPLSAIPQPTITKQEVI
Calb FLC: affects C. albicans growth with fluconazole; C. albicans CaCi-2 (fluconazole-resistant clinical isolate) + fluconazole, Alamar Blue growth, 48 h; growth inhibition, % (test concentration not listed); 300,000 compounds, 0.57% hits; AID 1979;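 active = most replicates above 75%; inconclusive = exactly half above 75%; inactive = most below 75%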;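 also: all wells also contain fluconazole at 8 µg/ml as a sub-toxic cotreatment; 0% = median of DMSO wells and 100% = median of geldanamycin control wells; wells of about 8 µL received 7.5 nL stock; the first replicate is given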
ALR inh: human ALR oxidase inhibition via reduced H2O2; P55789; 290,000 compounds, 3.8% hits; purified ALR, DTT oxidation, H2O2 HRP-luminol luminescence; inhibition, % (no concentration beside the values);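 active = mean and each replicate at 75% or more; inconclusive = only one of the two met; inactive = neither met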;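 also: stock transfer was 7.5 nL into about 7.5 µL; 0% = neutral wells and 100% = wells with inactivated enzyme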
Target sequence (P55789 whole entry, looked up): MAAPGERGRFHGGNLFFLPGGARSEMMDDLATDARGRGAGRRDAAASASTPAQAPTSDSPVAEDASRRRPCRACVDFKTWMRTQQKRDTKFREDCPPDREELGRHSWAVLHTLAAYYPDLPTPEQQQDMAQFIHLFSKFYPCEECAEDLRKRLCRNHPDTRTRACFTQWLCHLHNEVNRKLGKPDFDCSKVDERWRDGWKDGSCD
Beta2AR agonist: human beta-2 adrenergic receptor agonism by FAP; P07550; Am2.2-beta2AR cells, FAP receptor internalization, flow cytometry; reference of the scale not given here; response, % (test concentration not listed); 340,000 compounds, 0.43% hits; AID 504454;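 active = response above a set limit, near 3 SD of response in nonfluorescent compounds, cut at about 42% in these data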;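 also: stock transfer was 100 nL into about 11 µL; a reference agonist was the positive control; negative values mostly stem from fluorescent compounds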
Target sequence (P07550 whole entry, looked up): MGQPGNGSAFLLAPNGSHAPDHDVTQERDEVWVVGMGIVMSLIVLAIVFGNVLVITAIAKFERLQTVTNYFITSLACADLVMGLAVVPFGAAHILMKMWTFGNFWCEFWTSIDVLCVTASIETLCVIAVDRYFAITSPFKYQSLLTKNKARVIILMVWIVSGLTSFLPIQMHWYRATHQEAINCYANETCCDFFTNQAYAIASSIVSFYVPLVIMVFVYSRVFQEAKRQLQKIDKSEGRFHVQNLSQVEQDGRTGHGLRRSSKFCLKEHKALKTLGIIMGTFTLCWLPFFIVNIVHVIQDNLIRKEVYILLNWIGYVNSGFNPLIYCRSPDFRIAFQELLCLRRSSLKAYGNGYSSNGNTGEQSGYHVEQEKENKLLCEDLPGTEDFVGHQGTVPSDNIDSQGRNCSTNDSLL
RanGTP-Imp inh: disruptors of Ran-importin-beta complex formation – biochemical, FRET, CFP-Ran, YFP-importin-beta, homogeneous, primary screen | cell-free CFP-Ran/YFP-importin-beta FRET ratio | inhibition, % (no concentration beside the values) | 300,000 compounds, 1.1% hits | AID 2216;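 active = most replicates above 15%; inconclusive = exactly half above 15%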;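 also: 0% = DMSO wells and 100% = Ran loaded with GDP instead of GTP; wells of about 40 µL received 100 nL stock; the first replicate is given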
LANA-H2B inh: blocks KSHV LANA binding to histone H2A/H2B; Q9QR71; cell-free LANA-H2A/H2B peptide, fluorescence polarization; inhibition, % (concentration not given with the values); 320,000 compounds, 0.6% hits; in the data active = inhibition mostly above about 10%, no sharp cut-off; inactive = mostly below about 6.7%;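 also: stock transfer was 7.5 nL into about 10 µL; 0% = median of vehicle wells and 100% = median of positive control wells; one replicate is shown; the record names a cut of 25% in any replicate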
Vif TR-FRET: inhibitors of Vif binding to APOBEC3G peptide, primary screen, biochemical, TR-FRET, GST-Vif 1-94, biotin-A3G peptide, dose response retest (AID 1117319). TR-FRET GST-Vif / biotin-A3G peptide binding; higher % means a stronger effect; test concentration not given here; strong numbers were not always called active. one-dose inhibition, %; IC50 in µM for titrated hits. 260,000 compounds, 0.57% hits;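 active = above the screen mean plus three standard deviations and confirmed in dose response; inconclusive = results disagree or hit not tested in dose response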;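 also: Vif residues 1-94 fused to GST binding biotinylated APOBEC3G peptide 110-148; 0% = full assay without inhibitor and 100% = GST in place of GST-Vif; retest series ran down from 100 µM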
* = called active by the depositor; ? = inconclusive; nt = not tested or not shown; & = joins results of further samples. Random draw from the library (roughly 6.3% active in at least one column).

SMILES	HNF4A DNA FP	Calb FLC	ALR inh	Beta2AR agonist	RanGTP-Imp inh	LANA-H2B inh	Vif TR-FRET
CC1(C)c2ssc(=S)c2-c2ccccc2N1C(=O)c1ccco1	-0.8	0	nt	-1	-5.7	2.4	0%
CC[C@H](C)Cc1cn([C@@H](CCCN=C(N)N)C(=O)NCCCCCCCCCCC(=O)N2CCNCC2)nn1	2.1	-2	-5	-13	6.2	1.3	nt
O=C(Nc1ccc2c(c1)OCO2)C1CC1(Cl)Cl (centres undefined)	1.4	nt	-6	-6	nt	0.0	-5%
CCC(=O)c1ccc(OCC(=O)OCC(=O)NCCC2=CCCCC2)cc1	1.0	-8	5	2	2.0	2.6	2%
COc1cc(C(=O)NCCSc2ccc(F)cc2)cc(OC)c1OC	-0.8	-4	-8	-8	7.6	0.0	-2%
CC(Oc1ccccc1)C(=O)N=Nc1c(O)[nH]c2ccc([N+](=O)[O-])cc12 (centres undefined)	3.3	-6	-6	-7	-2.5	6.1	-3%
CCc1nnc(NS(=O)(=O)c2ccc(N/C=C\C(=O)c3ccc4ccccc4c3)cc2)s1	-4.7	-7	9	11	-1.8	-1.4	nt
CCOc1ccc(C2/C(=C(/O)c3ccc4c(c3)CC(C)O4)C(=O)C(=O)N2CCCn2ccnc2)cc1OCC (centres undefined)	-1.1	4	-10	1	-1.9	4.4	nt
O=C(C1COc2ccccc2O1)N1CCN(c2nc3ccc([N+](=O)[O-])cc3s2)CC1 (centres undefined)	-0.8	11	-4	14	-1.5	-0.1	-6%
Cc1nc2ccc(C(=O)OCc3ccccc3Br)cc2nc1C	3.1	21	-3	-1	1.2	0.4	-34%
Cc1cc2ncc(-c3ncc(C(F)(F)F)cc3Cl)cn2n1	0.8	4	-2	-7	-1.4	7.2	28%
O=C(O)c1cccc(-n2cccc2/C=C2/NC(=O)N(c3cccc(Cl)c3)C2=O)c1	-27	7	nt	1	-0.1	3.3	nt
Cc1c(Cl)c([N+](=O)[O-])nn1CCCC(=O)Nc1ccc(Cl)cc1Cl	-3.5	6	-8	-6	6.6	1.0	11%
Cc1ccc(S(=O)(=O)N2[C@@H](c3ccc(Br)cc3)C(C(=O)O)=CC[C@H]2c2ccc(C(C)C)cc2)cc1	-18	nt	nt	5	nt	7.1	-2%
Cc1ccc(S(=O)(=O)Nc2ccc3c(c2)CC(=O)N([C@H](C)CO)C[C@H](C)[C@H](CN(C)Cc2ccc4c(c2)OCO4)O3)cc1	-0.4	nt	-11	1	nt	-0.9	nt
O=c1[nH]ncc(NCCCO)c1Cl	-0.8	0	0	5	-5.7	-7.1	nt
CCOC(=O)c1cc2c(n(-c3ccc(C)cc3)c1=O)CCCC2=O	-0.7	-1	-5	8	3.9	2.7	6%
Cc1[nH]c2ccc(C(=O)NCc3ccccn3)cc2c1C	-4.3	-4	9	11	2.3	-0.7	nt
COc1ccc(Br)cc1CN(C)CC(=O)Nc1cccc(S(=O)(=O)N2CCCC2)c1	-0.6	nt	-15	30	nt	-2.4	-4%
COc1ccc(CN2CCC(Oc3cc(C(=O)NC4CC4)ccc3OC)CC2)c(O)c1	5.7	-4	47	-16	-2.4	nt	nt
CC1Cc2ccccc2N1C(=O)CSc1nc(-c2ccco2)cc(C(F)(F)F)n1 (centres undefined)	-2.6	1	-3	-21	-2.8	1.1	13%
COc1ccccc1Nc1nnc(SCC(=O)Nc2nc(-c3ccc(F)cc3)cs2)s1	11	5	-8	11	0.5	-6.8	-4%
COc1ccc(CSCC(=O)Nc2ccccc2)cc1[N+](=O)[O-]	-3.1	1	99*	-12	0.5	0.6	0%
Cc1ccc(S(=O)(=O)NNC(=O)NC23CC4CC(CC(C4)C2)C3)cc1	-2.9	-2	94*	-3	-0.1	-1.4	nt
CCCCNc1c(NC(C)=O)c(=O)oc2ccccc12	1.9	?	nt	-1	0.8	0.4	-11%
Cc1ccc(OCc2ccoc2C(=O)O)cc1C	-6.4	1	15	-5	4.5	2.6	9%
CC(CCc1ccco1)NC(=O)Cn1nc(Cc2ccncc2)c2ccccc2c1=O (centres undefined)	-3.5	-6	6	-5	2.6	1.3	5%
Oc1ccccc1Cn1c(-c2ccccc2O)nc2ccccc21	-3.4	-20	-2	0	-6.9	1.5	0%
Cc1c(NC(=O)c2cc3nc(-c4ccccc4)cc(C)n3n2)c(=O)n(-c2ccccc2)n1C	-2.6	8	53	-2	nt	3.3	?
Cc1c(-n2c(SCC(=O)NC(C)C)nc3ccccc3c2=O)c(=O)n(-c2ccccc2)n1C	1.7	-6	nt	3	-2.1	4.6	-9%
COc1ccc(NC(=O)CNc2cccc(C#N)c2)cc1Cl	3.9	6	-1	0	2.3	-2.9	8%
COc1cc2c(cc1OC)CN(S(=O)(=O)c1cccs1)CC2	-1.5	17	-3	2	-0.6	0.0	-7%
COc1ccc(-c2c(C#Cc3ccsc3)c3cc(-c4ccc(OC)nc4)ccc3n2C)cc1	6.9	nt	-6	0	nt	2.0	nt
NC(=O)C1CCN(C(=O)CSc2nc3ccccc3s2)CC1	1.4	-1	98*	-1	-1.0	2.4	-3%
CCN1C(=S)SC(=O)C1=C1C=C(C)N(CCO)C(C)=C1	0.1	0	99*	-52	1.6	5.9	5%
Cc1ccc2occ(C3N[C@H](C(=O)O)CS3)c(=O)c2c1 (some centres undefined)	9.0	-4	99*	9	2.7	2.4	-11%
CC(=O)N1CCN(c2ccc(NCc3ccc4c(c3)OCO4)cc2)CC1	0.1	1	nt	-2	-3.7	-3.8	3.8µM*
O=[N+]([O-])c1ccc(NC(=S)NCCc2ccc(Cl)cc2)cc1	-0.8	-22	-1	11	-3.8	0.8	0%
COC(=O)CSc1nc2nc(C)cc(C)n2n1	4.0	-1	nt	0	-2.1	5.2	3%
CNc1ccc(Br)cc(C(=O)/C=C/c2cccc(Cl)c2Cl)c1=O	20	nt	nt	-115	nt	nt	?
Cc1ccsc1C(=O)N/N=C/c1ccc([N+](=O)[O-])cc1	-1.0	-2	-16	12	0.9	2.4	8%
COCCNC(=O)C(c1cccnc1)N(Cc1ccccc1)C(=O)Cn1nnc2ccccc21 (centres undefined)	-6.6	0	-9	18	3.4	5.8	nt
Cc1cc(C)n2nc(C(=O)OCC(=O)Nc3ccc(F)cc3F)nc2n1	-0.6	-3	0	0	nt	2.3	nt
COc1ccc(OC/C(O)=C(\C#N)c2nc3ccccc3[nH]2)cc1	3.7	3	-10	-6	-5.2	-1.9	5%
O=C(c1cc(COc2c(F)cccc2F)on1)N1CCSCC1	2.5	-10	nt	2	0.0	-1.7	2%
CCOC(=O)c1c(NC(=O)CSc2nnc(-c3cccnc3)o2)sc2c1CCC2	-5.2	-15	nt	-3	-1.0	4.8	7%
FC(F)(F)c1cccc(NC(=S)NCc2ccc(Cl)cc2)c1	-0.2	-27	-13	4	1.0	-7.0	nt
Cc1ccc(NC(=O)COc2cccnc2[N+](=O)[O-])cc1S(=O)(=O)N1CCOCC1	-6.7	36	nt	-11	-14	-7.1	20%
Cc1nc(SCC(N)=O)c(C#N)c(C)c1C	-1.9	3	0	5	2.6	-7.1	nt
Cc1cccc(-c2ncc(CN3CCN(CCC(C)C)C(CCO)C3)cn2)c1 (centres undefined)	-0.9	-5	2	4	1.8	0.8	nt
COc1ccccc1C(=O)NCC(=O)NCCC(c1ccccc1)c1ccccc1	0.1	nt	-3	-6	nt	-0.7	-5%
CN(CC(=O)Nc1ccccc1F)Cc1cccs1	1.4	8	-3	0	-1.7	-2.3	nt
COc1ccc(CN2CCN(C3CCOCC3)CC2CCO)c(C)c1C (centres undefined)	-0.8	-3	21	1	2.5	0.4	nt
COc1ccc(-c2noc(CSc3nnc(Cc4ccccc4)n3-c3ccc(Cl)cc3)n2)cc1	0.8	-4	-11	-8	-4.8	-2.7	-7%
CN(C)C(=O)c1ccc(OCC(F)(F)F)nc1	2.8	-6	-7	2	8.1	3.2	-7%
CCOC(=O)c1cccc(NC(=O)CSc2nc(N)cc(N)n2)c1	-0.8	0	48	4	6.3	5.3	30%
COc1ccc(Oc2nnc(C)c3ccccc23)cc1	-3.1	-1	-3	1	-1.3	2.5	?
CSc1cccc(NC(=O)C2CCCN(S(=O)(=O)c3ccc(F)cc3)C2)c1 (centres undefined)	0.9	5	1	8	2.8	0.9	2%
Nc1ccc(S(=O)(=O)NC2(C(F)(F)F)NC(=O)N(Cc3ccccc3)C2=O)cc1 (centres undefined)	1.3	-13	2	-3	?	-2.9	nt
O=C1CN(C(=O)COC(=O)CNC(=O)c2ccccc2)c2ccccc2N1	1.2	-4	-2	1	-1.3	3.7	4%

Later entries
SMILES	HNF4A DNA FP	Calb FLC	ALR inh	Beta2AR agonist	RanGTP-Imp inh	LANA-H2B inh	Vif TR-FRET
CSCCC(C)N1CCC(Oc2ccc(C(=O)N3CCCC3)cc2)CC1 (centres undefined)	-1.6	-10	-24	6	7.8	2.2	3%
O=C(CSc1nc2ccccc2nc1N1CCCC1)Nc1ccc(Cl)cc1	-5.4	7	-18	-10	1.5	6.1	nt
COc1ccc(C=O)cc1COc1ccc(C)cc1[N+](=O)[O-]	3.0	-1	-4	-3	1.6	2.7	-1%
Cc1ccc(NC(=O)CSc2ncccn2)c([N+](=O)[O-])c1	-2.0	1	-8	8	8.0	-4.2	nt
CCN(CC)C(=O)[C@H]1C[C@H](CC(=O)NCCCn2ccnc2)C(=O)N2CCc3c([nH]c4cc(CCC(=O)N(C)C)ccc34)[C@]12C	-2.4	nt	nt	-3	nt	nt	5%
CCn1c(=O)c2cc(C(=O)N3CCCC3)sc2c2ccccc21	nt	-5	nt	nt	3.2	nt	7%
O=C(/C=C/c1cccc(F)c1)Nc1cc(S(=O)(=O)N2CCOCC2)ccc1N1CCCC1	1.5	11	2	6	7.2	-1.1	-8%
CC(=O)c1ccc(NC(=O)NC2CCCCCCC2)cc1	-2.4	-30	35	-1	nt	-1.2	nt
O=C(COc1coc(CN2CCc3ccccc3C2)cc1=O)Nc1ccc(F)cc1F	-0.9	2	2	-2	-2.6	-6.6	-3%
COc1ccc(OCCNC(=O)c2ccccc2Cl)cc1	1.6	1	-8	-1	0.1	4.6	-8%
CCn1c(=O)cc(SCC(=O)N2CCN(C3CCCCC3)CC2)c2ccccc21	2.0	17	-2	1	4.7	1.3	0%
CCOC(=O)C1CCN(Cc2cc(=O)oc3cc(C)ccc23)CC1	0.9	-8	-13	13	-1.4	-4.1	-9%
Cc1ccc(S(=O)(=O)N2C[C@@H]3[C@H]4CC[C@H](C4)[C@@H]3[C@@H](C)[C@@H]2c2cn(Cc3ccccc3)c3ccc(F)cc23)cc1	-2.6	nt	nt	-9	nt	nt	-6%
CC(=O)CCc1c[nH]c2c(C(=O)O)cccc12	2.2	2	-9	-3	0.7	2.9	2%
Cc1cc(NC(=S)NC(=O)CC(C)C)ccc1Br	1.1	6	-8	11	-2.4	4.1	20%
CCN(CC(=O)Nc1ccc(N2CCOCC2)cc1)C(=O)c1ccc(C#N)cc1	1.9	3	10	0	1.1	4.2	4%
CC(NC(=O)Nc1nnc(C(F)(F)F)s1)(C(F)(F)F)C(F)(F)F	-1.8	71	-4	21	-0.5	7.4	-7%&30%
O=C(Nc1ccccc1C(=O)O)C1=NN=CC1	0.2	1	-8	-5	-3.1	-4.3	2%
Cc1cc([N+](=O)[O-])ccc1NC(=S)NC1CCCC1	-1.0	-4	-9	7	-1.3	4.7	-1%
COc1ccc(NC(=O)CN2CCN(S(=O)(=O)c3ccc(C(C)C)cc3)CC2)cc1OC	2.6	-15	nt	-6	2.7	nt	5%

Screens from PubChem BioAssay.
